GIV-Gai inh: inhibitors of GIV GBA-motif binding to rat Galpha-i3. P08753. Galpha-i3/FITC-GIV peptide fluorescence polarization, 90 min; hits give low values; scaled: aluminum fluoride 0%, vehicle 100%. percent of control (FP), % (test concentration not listed). actives 0.42% (n = 210,000);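 active = replicate mean at 85% of control or lower, very high polarization wells dropped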;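 note: wells of about 15 µL received 100 nL stock; the first replicate is given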
Target sequence (P08753 whole entry, looked up): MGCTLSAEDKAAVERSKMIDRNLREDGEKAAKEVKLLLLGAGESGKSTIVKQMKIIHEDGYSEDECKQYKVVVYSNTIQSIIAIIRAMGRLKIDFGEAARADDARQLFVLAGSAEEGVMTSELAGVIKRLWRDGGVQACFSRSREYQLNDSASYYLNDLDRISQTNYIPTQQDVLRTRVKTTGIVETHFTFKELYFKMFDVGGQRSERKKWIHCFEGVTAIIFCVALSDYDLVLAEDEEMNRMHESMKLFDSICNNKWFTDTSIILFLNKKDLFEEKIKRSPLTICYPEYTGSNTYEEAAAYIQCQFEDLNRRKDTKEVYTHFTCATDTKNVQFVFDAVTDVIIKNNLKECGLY
Sa growth 42C: S. aureus growth inhibition. S. aureus RN4220 growth, OD600, 20 h, 42 °C; hits give low values. relative growth, % (concentration not given with the values). actives 0.53% (n = 170,000). AID 720641;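 active = growth at 42 °C up to 50% and 20 or more points under that at 30 °C, or under 10% at both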;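 note: 300 nL library stock went into each well; scaled to the means of positive and negative controls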
HCMV UL50-53 inh: inhibitors of HCMV UL50-UL53 nuclear egress complex interaction; HTRF UL50-UL53 interaction, normalized percent inhibition; actives 0.15% (n = 190,000); inhibition, % (concentration not given with the values);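 active = both replicates at 50% or more, plus weaker picks with an unusually low signal ratio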;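 note: stock transfer was 100 nL into about 20 µL; 0% = negative control wells and 100% = wells with untagged competitor protein; inactives centre near -12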
Sa growth 42C second temp: recorded beside Sa growth 42C, whose call it bears; relative growth, %; measured here: growth at 30 °C;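 optical density after 20 h as mean of two plates; 100% = untreated growth and lower means inhibition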
* marks the source's active call; other numbers are inactive results; . = not tested or not shown; & = joins results of further samples. Outcome played no part in choosing rows; about 0.79% have a hit in one of these screens.

Sequence of screens – HCMV UL50-53 inh, GIV-Gai inh, Sa growth 42C, Sa growth 42C second temp
O=C(O)CC1NC(=O)N(c2ccccc2)C1=O (stereo unspecified)
 : -3, 96, 89, 115
Nc1nc(C2COc3ccccc3O2)ncc1S(=O)(=O)c1ccc(Cl)cc1 (stereo unspecified)
 : -8, 114, 103, 86
CCOC(=O)CCc1c(C)nn(-c2ccc(N3CCOCC3)nn2)c1C
 : ., 104, 93, 90
Cc1cc(C)cc(Oc2nc3c(C)cccn3c(=O)c2/C=C(\C#N)c2nc3ccccc3s2)c1
 : -23, 143, 80, 96
CC1CN(C(=O)CCC(=O)O)CC(C)O1 (stereo unspecified)
 : -36, 104, 92, 96
N#CCCN1CCn2c1nc1ccccc12
 : -13, 102, 85, 90
Cc1cc(C)nc(NS(=O)(=O)c2ccc(NC(=O)CSc3nc4c(cc3C#N)CCCC4)cc2)n1
 : 5, 98, ., .
COC(=O)c1c(-c2ccc(Cl)cc2)noc1N1CCN(c2ccc(OC)cc2)CC1
 : ., 102, 88, 82
CC(C)NC(=O)c1ccc2c(c1)nc1n2CCCCC1
 : ., 103&98, 95, 92
CCN(CC)c1cc(C)c2cc(NC(=O)/C=C/c3ccccc3Cl)ccc2n1
 : -6, 96, 123, 89
COc1cc(OC)cc(C(=O)Nc2nc(CC(=O)NCc3c(F)cccc3F)cs2)c1
 : -17, 104, ., .
COc1ccc(CCNC(=O)Cn2c(=O)n(-c3ccccc3)c(=O)c3c(C)c(C)sc32)cc1OC
 : 0, 97, 97, 88
COc1ccc(C(CCN)C(C)C)cc1 (stereo unspecified)
 : -13, 100, 117, 100
CCOC(=O)C1CCN(C(=O)COC(=O)c2ccc(Br)cc2)CC1
 : -10, ., 96, 97
Cc1ccc(S(=O)(=O)N(C)c2ccccc2)cc1
 : 2, ., 106, 92
COc1cc2[nH]c(=O)n(Cc3ccc(C(=O)NCc4ccc(C)cc4)cc3)c(=O)c2cc1OC
 : 2, 104, 110, 99
O=C(NCc1ccccc1)c1cccn1-c1nnc(N2CCCCC2)s1
 : ., 100, 87, 90
Cc1cccc(Cn2c(SCc3ccc(C(=O)NC4CCCC4)cc3)nc3cccnc32)c1
 : ., 111, 104, 96
COc1ccc(N=Cc2ccc(Sc3ccccn3)o2)cc1
 : -26, ., 75, 85
Cc1nc(N2CCN(c3ccccn3)CC2)c2c(C)c(C(=O)N3CCCCC3)sc2n1
 : -13, 107, ., .
O=C(COC(=O)c1cc[n+]([O-])cc1)Nc1ccccc1Cl
 : -18, ., 99, 92
COC(=O)Cn1c(=O)n(Cc2ccccc2)c(=O)c2cc3c(nc21)CC(C)(C)OC3
 : -29, 96, ., .
Cn1c(=O)cc(OCC(=O)N2CCN(c3ccccc3F)CC2)c2ccccc21
 : -18, 104, 109, 91
O=C(O)CCSCCc1ccncc1
 : -26, 103, 87, 92
COCCCNC(=O)CCc1c(C)nc2cc(-c3ccc(Cl)cc3)nn2c1C
 : 9, 102, 93, 87
C=CCNC(=O)CN1CCC(n2c(C)nc3cc(C(F)(F)F)ccc32)CC1
 : -2, 105, 138, 90
CCn1c(=O)c(N2CCC(C(=O)Nc3ccc(F)c(Cl)c3)CC2)c(C)n(-c2ccccc2)c1=O
 : -24, 105, ., .
Cc1c(C(N)=O)sc(C(N)=O)c1C
 : -14, 97, 81, 86
CN(C)c1oc(-c2ccc(F)cc2)nc1S(=O)(=O)c1ccc(F)cc1
 : -24, 103, ., .
Cc1ccc(CSc2nnc(-c3cnccn3)s2)cc1
 : -25, 100, 96, 96
COc1cc(S(=O)(=O)N2CCN(Cc3ccc4c(c3)OCO4)CC2)c(OC)cc1C
 : -13, 99, 85, 82
COc1ccc2cc(-c3nc4ccc(C(=O)O)cc4[nH]3)c(=O)oc2c1
 : ., 99, 103, 90
Cn1c(=O)c2c(-c3ccc(Cl)cc3)n(Cc3ccc(Cl)cc3)cc2n(C)c1=O
 : 4, 97, 110, 87
CN(C)CCC(C)(O)Cc1ccccc1 (stereo unspecified)
 : -19, ., 101, 89
Cc1[nH][nH]c(=O)c1N=Nc1ccc(S(=O)(=O)N2CCCCC2)cc1
 : -67, 101, 103, 90
CCCn1c(O)c(C2=NC(=S)NC2=O)c2ccccc21
 : 0, 108, 102, 91
CC(=O)Nc1ccc(OCc2cc(=O)n3ccccc3n2)cc1
 : ., 92, 92, 88
CCOc1ccc(N(CC)S(=O)(=O)N2CCCC(C(=O)NCc3ccccc3OCC)C2)cc1 (stereo unspecified)
 : ., 103, 117, 95
Cn1c(=O)c2c(ncn2CC(=O)Nc2ccncc2)n(C)c1=O
 : ., 94, 101, 83
CCC(C)NC(=O)c1ccc2c(c1)N(Cc1ccccc1)C(=O)c1ccccc1S2(=O)=O (stereo unspecified)
 : -38, 108, 86, 89
COc1ccc(-n2nc(C(=O)O)c(C)c(C#N)c2=O)cc1
 : -126, 105, 96, 96
CCOC(=O)C1CCN(S(=O)(=O)c2ccc(-c3csc(C)n3)s2)CC1
 : ., 102, 100, 89
Cc1cccc(NC(=O)C2CCCN(S(=O)(=O)c3c(C)[nH]c(=O)[nH]c3=O)C2)c1C (stereo unspecified)
 : 3, 109, 88, 99
CCOc1ccc(CNC(=O)C2CCN(S(=O)(=O)c3ccc4c(ccn4C)c3)CC2)cc1
 : ., 100, 79, 75
Cc1noc(C)c1C(=O)OCc1ccc(-c2ccc(F)cc2F)o1
 : 4, 97, 93, 110
CCc1ccc(NC(=O)CCS(=O)(=O)c2ccc3c(c2)oc(=O)n3C)cc1
 : ., 108, 94, 84
CCOc1cc(/C=C2\C(=O)Nc3ccccc32)ccc1O
 : -22, ., 75, 96
CCOC(=O)c1oc2ccccc2c1COC(=O)[C@H](C)NC(=O)c1ccco1
 : 8, ., 114, 101
Cc1ccccc1Cc1c(C)nc2ncnn2c1C
 : -22, 102, 90, 84
CCc1cccc(C)c1Nc1c(-c2ccc(N3CCOCC3)cc2)nc2ncccn12
 : -25, 159, 96, 74

Carrying on:
Sequence of screens – HCMV UL50-53 inh, GIV-Gai inh, Sa growth 42C, Sa growth 42C second temp
COCC(C)NC(=O)c1cnn2c(C(F)F)cc(-c3ccccc3)nc12 (stereo unspecified)
 : -18, 96, 107, 90
COc1cc(Cl)c(C)cc1NC(=O)Cn1c2ncccc2c(=O)n1-c1ccccc1
 : ., 108, 98, 90
Cc1ccc(-c2nc3cccnc3s2)cc1NC(=O)Cc1ccccc1
 : 1, 108, 84, 88
COC(=O)c1cccc(NC(=O)C2(c3ccccc3)CCOCC2)c1
 : -21, 95, 88, 73
COc1ccc2c(CC(=O)OCC(=O)Nc3c(C)n(C)n(-c4ccccc4)c3=O)coc2c1
 : -20, ., 80, 84
CCc1ccc(S(=O)(=O)c2cn(CC)c3cc(N4CCOCC4)c(F)cc3c2=O)cc1
 : ., 104, 123, 93
COc1cc(C)ccc1OCCSc1nc2ccc(NC(C)=O)cc2s1
 : -11, 96, 109, 86
CCCCN(CC)CCCNC(=O)c1cn(CC)c2ccc(S(=O)(=O)N3CCOCC3)cc2c1=O
 : -24, 96, 102, 90
O=C1C=C(c2ccccc2)OC2(CCCCC2)O1
 : -38, 110, 90, 70
COC(=O)CN1C(=O)CSc2ccc(S(=O)(=O)Nc3c(C)cc(C)cc3C)cc21
 : ., 103, 102, 84
CCc1nc(-c2ccc(C(=O)NCC(=O)Nc3cccc(C)c3C)cc2)no1
 : -34, 107, ., .
Nc1n[nH]c(-c2ccc(Cl)cc2)n1
 : -3&-9, 100&96, 99, 82
C=CCn1c(-c2nnc(CCC)o2)cc2ccccc21
 : -16, 102, ., .
Cc1ccc(Nc2ncc(C(=O)N3CCN(c4cccc(Cl)c4)CC3)c3ccccc23)cc1Cl
 : -6, 107, 103, 97
COc1ccc(NC(=S)N(C)Cc2c(C)nn(C)c2C)c(OC)c1
 : 0, 98, 105, 97
OCCN(Cc1ccccc1)Cc1ccccc1C(F)(F)F
 : 7, 109, 111, 108
CN(C)/C=C(\C#N)c1nc2ccccc2s1
 : -23, 123, 101, 91
CC(C)N1C(=O)C2(N=C(N)Nc3nc4ccccc4n32)c2ccccc21 (stereo unspecified)
 : -21, ., 87, 79
CCOC(=O)c1cn[nH]c1S(=O)(=O)Nc1ccc(C)c(C)c1
 : 6, 100, ., .
O=C1CCCc2cc(S(=O)(=O)N3CCCC(C(=O)NCCc4ccccc4)C3)ccc2N1 (stereo unspecified)
 : -10, 109, 102, 99
Cc1ccc(OCc2ccc(-c3nc(C#N)c(N4CCN(c5cccc(Cl)c5)CC4)o3)o2)cc1
 : -16, 99, 99, 90
CCOC(=O)c1c(C)csc1NC=C(C#N)C#N
 : -30, 103, 73, 15
CCn1cc(S(=O)(=O)N2CCOCC2)cn1
 : 0, 111, 108, 107
O=c1cc(CSc2nnc(-c3cccc(S(=O)(=O)N4CCOCC4)c3)n2C2CCCCCC2)nc2sccn12
 : -6, ., 91, 99
COc1ccccc1/C=C/c1nc(C#N)c(NCC(C)C)o1
 : -39, 100, 102, 84
CCOc1ccc2nc(SCc3c[nH]c4cc([N+](=O)[O-])ccc34)sc2c1
 : -29, 100, ., .
CC(C)CCNC(=O)C1(C)Cn2c(c(-n3cccc3)c3ccccc32)C(=O)N1CCC1=CCCCC1 (stereo unspecified)
 : -11, 99, ., .
COc1ccc(/C=C/C(=O)N2CC(C)OC(C)C2)cc1OC (stereo unspecified)
 : -48, 102, 128, 94
O=C(c1cc2cc(Br)ccc2oc1=O)N1CCSC1c1ccc([N+](=O)[O-])cc1 (stereo unspecified)
 : -36, 99, ., .
CCN(Cc1ccccc1)C(=O)CCNS(=O)(=O)c1ccc2c(c1)CC(C)N2C(C)=O (stereo unspecified)
 : ., 107, 115, 97

Structural class: those above containing a thiophene ring, fused or not (five)
Sequence of screens – HCMV UL50-53 inh, GIV-Gai inh, Sa growth 42C, Sa growth 42C second temp
COc1ccc(CCNC(=O)Cn2c(=O)n(-c3ccccc3)c(=O)c3c(C)c(C)sc32)cc1OC
 : 0, 97, 97, 88
Cc1nc(N2CCN(c3ccccn3)CC2)c2c(C)c(C(=O)N3CCCCC3)sc2n1
 : -13, 107, ., .
Cc1c(C(N)=O)sc(C(N)=O)c1C
 : -14, 97, 81, 86
CCOC(=O)C1CCN(S(=O)(=O)c2ccc(-c3csc(C)n3)s2)CC1
 : ., 102, 100, 89
CCOC(=O)c1c(C)csc1NC=C(C#N)C#N
 : -30, 103, 73, 15

Further results follow.
Sequence of screens – HCMV UL50-53 inh, GIV-Gai inh, Sa growth 42C, Sa growth 42C second temp
COc1ccc(-n2nc3cc(C)c(NC(=O)c4ccc(-c5cccc(Cl)c5C)o4)cc3n2)cc1
 : -21, 101, 100, 74
COc1ccc(-c2cn3c(n2)sc2cc(C(=O)Nc4ccc(C)c(Cl)c4)ccc23)cc1
 : ., 104, 87, 97
COc1cccc(OC)c1C(=O)Nc1ccc(-c2nc3ncccc3o2)cc1
 : -42, 103, 103, 85
CCc1ccc(CN2CCC(C(=O)N(C)CCc3ccc(OC)c(OC)c3)CC2)cc1
 : -15, 103, 110, 99
Cc1ccc(N(C)C(=O)c2cc(S(=O)(=O)N3CCCCC3)c[nH]2)cc1
 : 0, 99, 108, 110
CCC(CC)C(=O)Nc1ccccc1SCc1cc(=O)n2c(ncn2C(C)C)n1
 : -26, 98, ., .
CCOc1ccc(CCNC(=O)CSc2nnnn2-c2ccccc2)cc1OCC
 : -1, 108, 105, 102
CCOC(=O)COc1ccccc1C(=O)c1ccn2nc(-c3ccc(OC)cc3)cc2n1
 : -34, 95, ., .
CCOC(=O)c1c(NC(=O)c2ccc(F)cc2)sc2c1CCC(CC)C2 (stereo unspecified)
 : -43, 105, 106, 92
O=c1c(C=NCCc2ccccn2)c(CSc2ccc(Cl)cc2)[nH]n1-c1nc2ccccc2s1
 : -5, 103, ., .
CCN(CC)c1ccc(C2NC(=O)NC(C)=C2C(=O)OCc2ccc(OC)cc2)cc1 (stereo unspecified)
 : -14, 103, ., .
CCc1ccc(NC(=O)CC2C(=O)N(c3cccc(C)c3)C(=O)N2Cc2cccc(OC)c2)cc1 (stereo unspecified)
 : ., 102, 94, 83
CCS(=O)(=O)c1nc2ccccc2n1CC(N)=O
 : 12, 104, 92, 100
COc1ccc(-n2nc3c(c2NC(C)=O)CSC3)cc1
 : 9, 101, 103, 92
N#CCSc1ncccc1C(F)(F)F
 : 6, 103, 98, 90
CCC1(CC)Cc2ccccc2-c2nc(NN)n(Cc3ccccc3)c(=O)c21
 : -16, 92, 125, 106
CCC(C)NC(=O)C1CCN(c2ccnc(-c3ccc(F)cc3)n2)CC1 (stereo unspecified)
 : -12, 104, ., .
CC(=O)Oc1ccccc1-c1nc(C)no1
 : -23, ., 87, 86
O=S(=O)(c1ccccc1)N1CCN(S(=O)(=O)c2ccc(Cl)cc2)CC1
 : -10, 101, 104, 99
CC(Sc1cn(CCNC(=O)c2cccs2)c2ccccc12)c1ccccc1 (stereo unspecified)
 : ., 100, 112, 83
Cc1cccc(NC(=O)c2ccccc2NC(=O)c2cccc(S(=O)(=O)N3CCOCC3)c2)c1
 : 7, ., 105, 93
O=C(CNC(=O)c1ccc(F)cc1)OCc1cc(=O)n2nc(C3CCCCC3)sc2n1
 : ., 108, 98, 86
Nc1nc(N)nc(CN2CCCC2c2nc3ccccc3s2)n1 (stereo unspecified)
 : -23, ., 82, 45
O=C(CCNc1n[nH]c(=O)[nH]c1=O)N1CCCCC1
 : -24, 102, 90, 99
CC1CCCCN1S(=O)(=O)c1ccc(C(=O)O)cc1 (stereo unspecified)
 : -20, ., 96, 89
COc1cc(C)c(NS(C)(=O)=O)cc1C(C)C
 : -19, 102, 112, 97
C=C(c1ccccc1)c1ccc(N(C)C)cc1
 : -21, 104, 93, 74

Compound activity as filed in PubChem BioAssay.
